CtBP-E1A inh: inhibitors of CtBP/E1A interaction; activity change, % (test concentration not listed); 340,000 tested, 0.49% active; AID 651724; AlphaScreen GST-E1A/His-CtBP binding, 1536-well; stronger effect = lower value; control for the full effect not named in the record; in the data active means activity change below about -65%; inconclusive means about -30% to -65%; inactive means above about -30%; further: on the % scale 0 is the no-effect control and ±100 the full control effect; compound concentration not given in the record
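AlphaScreen with 125 nM GST-E1A and 125 nM His-CtBP (5X stocks) in Tris pH 8.0, 300 mM NaCl, BSA, Tween 20, TCEP. Compounds preincubated 2 h at 37 deg C, then glutathione donor/nickel acceptor beads added for 1 h at 37 deg C in dark.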
ClpP mod: qHTS Assay for Activators of ClpP | Potency, µM (titrated, usually from 57.5 µM), for inactives: at the highest dose activity change, negative = active | ATP-dependent Clp protease proteolytic subunit (Bacillus subtilis (strain 168)), P80244 | 340,000 tested, 1.9% active | purified B. subtilis ClpP, FRET peptide cleavage, 20 min; active = well fitted falling curve with a large enough effect; inconclusive = small, poorly fitted or top-dose-only effect; inactive = no such curve, though single readings can be large or run the other way; further: potency means the concentration at half of the fitted maximal effect; the source files actives as falling curves though it sought activators and does not explain the sign; nearly all actives have a fitted effect of over 65% in size; many hits overshoot -100%
Target sequence (P80244 whole entry, looked up): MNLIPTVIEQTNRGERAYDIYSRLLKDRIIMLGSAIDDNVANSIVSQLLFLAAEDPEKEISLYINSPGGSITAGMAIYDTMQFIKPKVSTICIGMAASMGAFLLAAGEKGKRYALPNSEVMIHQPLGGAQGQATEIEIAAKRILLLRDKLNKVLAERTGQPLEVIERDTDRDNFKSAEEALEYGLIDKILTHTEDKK
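Purified B. subtilis ClpP, 10 microg/mL final in Tris/HCl pH8 with KCl, BSA, glycerol and Tween-20, cleaved an Abz/nitrotyrosine-quenched decapeptide. Fluorescence (ex 320, em 430) was read at 0 and 20 min at room temperature. Delta was normalized to 5.8 microM ADEP and DMSO/no-enzyme controls.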
gsp antag: gsp mutant antagonism; gsp-mutant cells, cAMP HTRF, 30 min; control for the full effect not named in the record; Potency, µM (series often up to 76.9 µM), for the others: top-dose activity change, negative = inhibition, most hits filed as inhibitors; 340,000 tested, 0.4% active; active = falling curve of any shape with a large fitted effect; inconclusive = falling curve, mostly with a smaller effect; inactive = flat or rising curve; cell line not stated here;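 further: intracellular cAMP measured with PDE inhibitor Ro 20-1724 present during compound exposure; potency means the concentration at half of the fitted maximal effect; on the % scale 0 is the no-effect control and ±100 the full control effect; nearly all actives have a fitted effect of over 65% in size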
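Cells in G418 medium, seeded 16-24 h, 37C; buffer exchange to DPBS + 1 mM CaCl2, 0.5 mM MgCl2, 0.05% BSA; cpds in DMSO + […] (300 uM stock), 30 min 37C; HTRF cAMP detection.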
TRPV1 potentiator: enhances activation of the human vanilloid receptor TRPV1 | TRPV1-expressing cells, Fluo-8 calcium influx, capsaicin EC20 potentiation; host cell line not named in the record; control for the full effect not named in the record | potentiation, % at 8.33 µM | 320,000 tested, 0.02% active | AID 540277; active means potentiation above 80%; inconclusive means 30% to 80%; inactive means below 30%; further: 0% is about no effect
Target sequence (Q8NER1 whole entry, looked up): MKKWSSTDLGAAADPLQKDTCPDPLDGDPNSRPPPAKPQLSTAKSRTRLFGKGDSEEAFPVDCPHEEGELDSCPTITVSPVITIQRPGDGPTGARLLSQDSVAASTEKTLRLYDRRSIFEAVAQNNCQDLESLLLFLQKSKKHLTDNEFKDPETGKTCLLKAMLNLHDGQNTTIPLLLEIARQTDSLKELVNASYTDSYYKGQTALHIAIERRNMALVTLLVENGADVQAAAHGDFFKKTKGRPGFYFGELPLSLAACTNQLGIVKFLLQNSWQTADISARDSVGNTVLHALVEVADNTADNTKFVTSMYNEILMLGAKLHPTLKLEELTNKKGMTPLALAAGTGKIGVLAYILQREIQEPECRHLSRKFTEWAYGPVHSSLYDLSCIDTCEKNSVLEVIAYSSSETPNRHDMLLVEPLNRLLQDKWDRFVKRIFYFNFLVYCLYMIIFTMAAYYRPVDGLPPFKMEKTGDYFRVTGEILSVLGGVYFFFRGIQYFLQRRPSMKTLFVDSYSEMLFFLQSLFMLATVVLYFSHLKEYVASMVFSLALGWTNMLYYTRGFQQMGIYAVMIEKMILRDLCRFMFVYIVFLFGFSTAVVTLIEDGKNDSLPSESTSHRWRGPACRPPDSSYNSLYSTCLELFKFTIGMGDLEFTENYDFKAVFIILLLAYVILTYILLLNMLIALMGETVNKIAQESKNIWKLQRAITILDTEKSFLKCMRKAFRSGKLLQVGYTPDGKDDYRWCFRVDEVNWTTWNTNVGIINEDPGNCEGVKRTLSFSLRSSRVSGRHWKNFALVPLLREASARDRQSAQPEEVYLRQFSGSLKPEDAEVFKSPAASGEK
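Cells expressing TRPV1 were dye-loaded with Fluo-8 and read kinetically: 10 s baseline, 3 min after compound (agonist portion), then 2 min after EC20 capsaicin (allosteric enhancer portion). Calcium-bound dye fluorescence at 480/520 nm.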
Sfp inh: Sfp phosphopantetheinyl transferase inhibition; Potency, µM, for the others: max response, negative = inhibition, actives largely listed as inhibitors; AID 1490; Q9F4F7; Biochemical Sfp PPTase activity, qHTS; 310,000 tested, 3.5% active; active means well fitted inhibition curve with a large enough effect; inconclusive means small, poorly fitted or top-dose-only effect, or another doubt; inactive means no such curve, though single readings can be large or run the other way;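 further: the enzyme is Sfp with the accession as filed and its product quenches rhodamine fluorescence; potency means the concentration at half of the fitted maximal effect; 0% = enzyme reaction without inhibitor and -100% = no enzyme wells; top concentration of the series not given in the record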
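Fluorescence-quenching assay: 15 nM Sfp-PPTase preincubated 15 min at room temperature with compound, then 5 uM rhodamine-CoA and 12.5 uM BHQ-2-labelled YbbR peptide added. Fluorescence (ex 525/em 598 nm) read at start and after 30 min; difference gives rate.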
gsp ag: agonists of gsp mutant (McCune-Albright syndrome) | gsp mutant cells, cAMP HTRF, 30 min; control for the full effect not named in the record | Potency, µM (doses to about 76.9 µM), for the others: at the highest dose activation (cAMP increase), actives largely listed as activators | 340,000 tested, 0.13% active | AID 624287; active = well fitted activation curve with a large enough effect; inconclusive = small, poorly fitted or top-dose-only effect, or another doubt; inactive = no such curve, though single readings can be large or run the other way; cell line not stated here;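 further: phosphodiesterase inhibitor Ro 20-1724 added with compounds to block cAMP breakdown; potency means the concentration at half of the fitted maximal effect; nearly all actives have a fitted effect of over 60% in size; about a fifth of the inactives were tested at one dose only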
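Cells stably selected in G418 were plated at 2000/well, grown 16-24 hr, then given compounds in DMSO with the PDE inhibitor […] (300 uM solution added) for 30 min at 37C; cAMP was read by HTRF.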
Menin-MLL FL inh: menin-MLL binding inhibition, fluorescein peptide. Fluorescence polarization, fluorescein-MLL peptide displacement from menin. FP activity change, % at 61.4 µM. 290,000 tested, under 10 active; inconclusive = falling polarisation curve, or a change in total fluorescence; inactive = total fluorescence flat and polarisation flat or rising; no compound was filed as active; the % refers to the polarisation; negative = inhibition;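 further: % of control where 0% means no effect; inhibitors lower the polarisation; unlabelled MLL peptide was the positive control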
Numbers without * were called inactive; ? = inconclusive; . = no result given; & = joins results of further samples; [ ] = another dose, or the depositor's remark. The list is partial; rates above refer to the full screens.

molecule	CtBP-E1A inh	ClpP mod	gsp antag	TRPV1 potentiator	Sfp inh	gsp ag	Menin-MLL FL inh
CCOC(=O)C(O)(c1ccc(NC(=O)Oc2ccccc2)cc1)C(F)(F)F (stereo unspecified)	0	-0.9%	0%	0	10%	-51%[inhibitor]	2.2
O=c1c(C=NCCN2CCNCC2)c(O)n(C2CCCCC2)c(=O)n1C1CCCCC1	-13	0.5%	13%	5	-8%	18%	8.4
COC(=O)NC(=C(Cl)Cl)P(=O)(c1ccccc1)c1ccccc1	.	-1.2%	8%	-6	-2%	-3%	3.3
CN1C(=O)/C(=C\c2ccc(Br)s2)C(=O)NC1=S	-15	.	-23%	22	40µM*	1%	?
CC1(c2ccc(Cl)cc2Cl)OCC(Cn2cncn2)O1 (stereo unspecified)	4	.	16%	3	8%	?	-1.5
C=CCn1c(O)c(/C=C2/C=c3ccccc3=N2)c(=O)[nH]c1=S	-12	.	?	3	1%	6%	?
CC(=O)Nc1cccc([As](=O)(c2cccc(NC(C)=O)c2)c2cccc(NC(C)=O)c2)c1	.	-3.1%	10%	0	21%	-24%	-0.7
COc1ccccc1OC(=O)c1ccc(C)c(S(=O)(=O)N2CCOCC2)c1	0	.	-9%	-12	9%	7%	1.3
CCCc1nc2ccccc2c(=O)n1-c1ccccc1OC	3	0.2%	-1%	-7	18%	3%	0.9
CCOC(=O)c1c(/N=C/c2c(O)n(-c3ccc(F)cc3)c(=S)[nH]c2=O)sc2c1CCCC2	-5	1.2%	2%	17	-3%	-39%[inhibitor]	13
O=C1NC(=O)C(Cc2cccs2)C(=O)N1	1	0.9%	4%	-4	?	-25%	2.6
CC1=C2[C@H]3OC(=O)[C@@H](C)[C@@H]3CC[C@@]2(C)C=CC1=O	-7	-1.9%	8%	0	14%	.	1.4
CC(C)(C)NC(=S)/N=C(\N)N[N+](=O)[O-]	7	0.7%	5%	1	?	-38%[inhibitor]	2.1
CC(C)N(CC(O)c1cccc([N+](=O)[O-])c1)C(C)C (stereo unspecified)	5	-1.0%	12%	?	9%	-21%	3.7
CCS(=O)(=O)N1CCCC(C(=O)N2CCC3(CC2)OCCO3)C1 (stereo unspecified)	12	-1.0%	20%	?	11%	6%	3.1
CCN(CC)C(=O)c1ccc(NC(=O)c2cccc(S(=O)(=O)N3CCN(C)CC3)c2)cc1	5	1.8%	12%	-14	21%	-2%	.
Cc1ccc2c(c1N)C(=O)c1ccccc1C2=O	?	-0.6%	-9%	10	.	.	.
O=c1[nH]c(=O)n(Cc2ccc(F)cc2)c(O)c1C=Nc1ccc(Cl)cc1	-1	.	9%	-9	17%	-2%	2.7
CCOC(=O)c1cnc(SCc2ccc(Cl)c(Cl)c2)nc1N1CC1	1	1.7%	12%	.	.	17%[15.4 µM]	.
CC(C)(C)NC(=O)N1c2ccccc2Sc2ccccc21	-1	-1.6%	3%	6	-4%	16%	-0.6
C=CCN(CC=C)Cc1c[nH]c2ccccc12	8	0.1%	5%	8	-2%	-32%[inhibitor]	-0.8
COc1ccc2c(c1OC)C(=O)O[C@@H]2[C@H]1c2cc3c(cc2CCN1C)OCO3	4	-2.3%	-6%	-7	.	.	.
OC(CN1CCOCC1)c1csc2ccccc12 (stereo unspecified)	1	0.5%	-10%	.	.	-3%[15.4 µM]	.
O=C(CCC(=O)N1C[C@H]2C[C@@H](C1)c1cccc(=O)n1C2)NCc1ccccc1C(F)(F)F	-12	-6.8%	-5%	11	.	.	.
CN1CCN(Cc2cc(=O)n3ccsc3n2)CC1	3	-13%	0%	?	-11%	-6%	.
CCN1CCN(Cc2ccc(C)cc2)CC1	1	-0.9%	1%	0	13%	-48%[inhibitor]	2.9
CN(C)C(=O)Oc1ccc(-c2nnco2)cc1	6	0.9%	14%	3	1%	5%	0.5
Cc1ccc(Cc2c(C)nc3nc(SCC(=O)N4CCC5(CC4)OCCO5)nn3c2C)cc1	-5	-13%	-11%	2	-10%	27%	7.7
CC1=NNC(=O)C1Br (stereo unspecified)	6	-1.6%	6%	.	.	0%	.
CN1C(=O)C(Cc2ccc(OCc3ccccc3)cc2)C(=O)N(C)C1=O	.	0.2%	-1%	-5	-27%	?	-21
Cc1ccc(NC(=S)NC2CC3CCC(C2)N3Cc2ccco2)cc1C (stereo unspecified)	0	0.9%	4%	-2	17%	-39%[inhibitor]	0.7
CC(=Nc1ccc(F)cc1)c1c(O)n(C)c(=O)[nH]c1=O	1	0.6%	4%	-33	13%	3%[15.4 µM]	4.1
C[C@]12CCC3C(C1CCC2=O)[C@H](O)C[C@H]1C[C@@H](O)CC[C@]31C (stereo partly specified)	1	1.6%	4%	.	.	3%[15.4 µM]	.
CN1CC(C#N)C2(O)c3ccccc3CCC2C1 (stereo unspecified)	4	-1.2%	-3%	-2	17%	-12%[15.4 µM]	-0.4
CCCCNC(=O)Oc1c(Br)cc2sc(=O)oc2c1Br	.	.	.	10	11µM*	.	2.8
O=C1CC(N2CC2)C(=O)N1c1ccccc1 (stereo unspecified)	16	0.4%	.	.	.	-2%	.
COc1ccc(CCN(C)Cc2ccc(F)cc2F)cc1OC	-2	1.6%	-21%	3	-24%	-21%	1.3
CC(=O)Nc1ccccc1C(=O)OCC(=O)c1ccc2ccccc2c1	17	?	25µM*	.	?	-6%	0.8
COC(=O)C1=C(c2ccc(C(C)=O)cc2)C[C@@H]2CC[C@H]1N2C(=O)NCCNC(C)=O	5	-0.5%	7%	-1	.	24%	.
CC1CCN(c2cc(Br)c([N+](=O)[O-])cc2F)CC1	-16	0.0%	-20%	-5	-16%	-28%	-4.1
CCc1ccc(CN2CCN(Cc3ccc(SC)cc3)CC2)cc1	.	.	7%	-10	?	3%[15.4 µM]	0.5
CC(C)(C)NCC(O)c1cc(Cl)c(N)c(Cl)c1 (stereo unspecified)	3	1.1%	2%	-3	14%&-20%&9%&15%	.	1.9&3.2&-0.9&-1.0
C=CC[C@@H](CC(=O)N(CCO)Cc1ccccc1)C(=O)NC[C@@H](OC(=O)[C@@H](CC=C)CC(=O)OC(C)(C)C)c1ccccc1	5	2.5%	-16%	.	.	-24%	.
Cc1ccccc1C1=NCC(=O)N(CC(=O)NCc2ccco2)c2sc3c(c21)CCCC3	11	-0.3%	-14%	4	50µM*	-3%	4.2
O=C1NC(=S)NC(=O)C1=Cc1cccc2cc3ccccc3cc12	.	14%	-10%	2	25µM*	?	?
CC12CCC3c4ccc(OP(=O)(N5CC5)N5CC5)cc4CCC3C1CCC2=O (stereo unspecified)	-2	.	-4%	.	.	-5%	.
COc1ccc(C2(C#N)CC[N+](C)(C)CC2)cc1	1	-0.4%	0%	-1	3%	15%	0.7
COC(=O)c1c(Sc2ccccc2)c2ccccc2n1C	.	-15%	2%	-26	0%	?	1.4
CC(C)c1ccc(N2C(=O)NC(=O)/C(=C/c3cnc(-c4ccccc4)nc3)C2=O)cc1	0	-2.8%	3%	9	56µM*	10%	?
Oc1cccc2nc3ccccc3nc12	?	1.9%	?	?	-15%	.	0.5

(listing goes on)
molecule	CtBP-E1A inh	ClpP mod	gsp antag	TRPV1 potentiator	Sfp inh	gsp ag	Menin-MLL FL inh
OC1/C(=C/c2ccccc2F)N2CCC1CC2 (stereo unspecified)	5	-1.2%	-7%	-6	3%	27%[15.4 µM]	3.5
NC(Cc1cc(O)c(O)cc1O)C(=O)O (stereo unspecified)	.	-1.4%	.	-12	.	.	?
CCCNC(=O)c1c(N)n(CC2CCCO2)c2nc3ccccc3nc12 (stereo unspecified)	32	18µM*	-24%	6	?	?	5.1
O=c1[nH]c2c(c(=O)n1C1CCCCC1)CCC2	-19	-1.5%	5%	0	4%	1%	-0.7
N#CC1=C(N)Oc2c(c(=O)sc3ccccc23)C1c1ccncc1 (stereo unspecified)	22	0.1%	?	8	4%	10%[15.4 µM]	-2.5
CCOc1ccc(CN(CCCl)CCCl)cc1C(=O)OC	0	3.1%	15%	-4	-15%	8%	-1.3
CCOC(=O)COc1ccc(/C=C2\C(=O)NC(=S)N(c3ccc(OC)cc3)C2=O)cc1OC	1	-3.4%	0%	13	45µM*	-11%	-14
CCOc1cc2[nH]c(=S)n(CCCC(=O)N3CCC4(CC3)OCCO4)c(=O)c2cc1OCC	-1	1.5%	-10%	-5	-42%	-36%[inhibitor]	-0.3
Cc1ccc([C@H]2C[C@H](O)[C@@H](n3cc(COC(=O)c4ccccc4)nn3)CN2C(=O)C2CCCCC2)cc1	6	-0.1%	.	.	.	-12%	.
O=C1NC(=O)N(Cc2ccccc2)C(=O)/C1=C\C=C\c1ccco1	5	.	4%	8	-26%	1%[15.4 µM]	?
COC(=O)C1=C(c2ccccc2OCc2ccccc2)C[C@@H]2CC[C@H]1N2C(=O)NCc1ccc(OC)cc1	-15	-1.0%	?	-3	.	-20%	.
NC(=Nc1ccccc1)Nc1ccccc1	8	-0.7%	12%	-17	9%&-5%	-67%[inhibitor]	-7.5&2.8
O=C1NC(=O)N(c2ccc3c(c2)OCO3)C(=O)/C1=C\c1ccc(-c2ccccc2C(=O)O)o1	-1	.	9%	-9	50µM*	0%[15.4 µM]	23
CC(=O)OC1C(=O)OCC23CCC4(C)OC4C2OC2CC(OC(=O)C=CC=CC(=O)OCCC1C)C3(C)C21CO1 (stereo unspecified)	-1	0.6%	-20%	.	.	4%	.
CN1C(=O)C(=Cc2c(OCc3cnc(Cl)s3)ccc3ccccc23)C(=O)N(C)C1=O	-1	-0.5%	-23%	-17	?	?	1.5
COc1cccc(C2Nc3ccccc3C(=O)N2Cc2ccccc2)c1 (stereo unspecified)	.	3.4%	-14%	.	.	14%	.
Cc1cccc(C(=O)NC(Oc2ccccc2)C(Cl)(Cl)Cl)c1 (stereo unspecified)	-3	-4.6%	7%	-9	16%	-22%	3.4
